Sfp inh – inhibitors of Bacillus subtilis Sfp phosphopantetheinyl transferase; AID 1490; Biochemical Sfp PPTase activity, qHTS; Q9F4F7; Potency, µM, for inactives: max response, negative = inhibition, hits mostly inhibitors; 310,000 compounds, 3.5% hits; active means well fitted inhibition curve with a large enough effect; inconclusive means small, poorly fitted or top-dose-only effect, or another doubt; inactive means no such curve, though single readings can be large or run the other way;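 further: the enzyme is Sfp with the accession as filed and its product quenches rhodamine fluorescence; potency means the concentration at half of the fitted maximal effect; 0% = enzyme reaction without inhibitor and -100% = no enzyme wells; top concentration of the series not given in the record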
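After 15 min at room temperature with compound, 15 nM Sfp received 5 uM rhodamine-CoA plus 12.5 uM BHQ-2-ybbR (50 mM Hepes pH 7.6, 10 mM MgCl2). Rate came from the fluorescence difference over 30 min, ex 525/em 598 nm.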
gsp agonist – agonists of gsp mutant (McCune-Albright syndrome); 340,000 compounds, 0.13% hits; AID 624287; gsp mutant cells, cAMP HTRF, 30 min; control for the full effect not named in the record; Potency, µM (titrated, usually from 76.9 µM), for inactives: at the top dose activation (cAMP increase), actives largely listed as activators; active = well fitted activation curve with a large enough effect; inconclusive = small, poorly fitted or top-dose-only effect, or another doubt; inactive = no such curve, though single readings can be large or run the other way; cell line not stated here;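 further: phosphodiesterase inhibitor Ro 20-1724 added with compounds to block cAMP breakdown; potency means the concentration at half of the fitted maximal effect; nearly all actives have a fitted effect of over 60% in size; about a fifth of the inactives were tested at one dose only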
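Cells in DMEM/10% FBS with G418 were pretreated with compounds in DMSO plus […] (300 uM stock) for 30 min at 37C. cAMP was measured by HTRF (cAMP-d2 plus anti-cAMP antibody-K) after 30 min at room temperature.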
TRPV1 potentiator – enhances activation of the human vanilloid receptor TRPV1; TRPV1-expressing cells, Fluo-8 calcium influx, capsaicin EC20 potentiation; host cell line not named in the record; control for the full effect not named in the record; potentiation, % at 8.33 µM; 320,000 compounds, 0.02% hits; active means potentiation above 80%; inconclusive means 30% to 80%; inactive means below 30%; further: 0% is about no effect
Target sequence (Q8NER1 whole entry, looked up): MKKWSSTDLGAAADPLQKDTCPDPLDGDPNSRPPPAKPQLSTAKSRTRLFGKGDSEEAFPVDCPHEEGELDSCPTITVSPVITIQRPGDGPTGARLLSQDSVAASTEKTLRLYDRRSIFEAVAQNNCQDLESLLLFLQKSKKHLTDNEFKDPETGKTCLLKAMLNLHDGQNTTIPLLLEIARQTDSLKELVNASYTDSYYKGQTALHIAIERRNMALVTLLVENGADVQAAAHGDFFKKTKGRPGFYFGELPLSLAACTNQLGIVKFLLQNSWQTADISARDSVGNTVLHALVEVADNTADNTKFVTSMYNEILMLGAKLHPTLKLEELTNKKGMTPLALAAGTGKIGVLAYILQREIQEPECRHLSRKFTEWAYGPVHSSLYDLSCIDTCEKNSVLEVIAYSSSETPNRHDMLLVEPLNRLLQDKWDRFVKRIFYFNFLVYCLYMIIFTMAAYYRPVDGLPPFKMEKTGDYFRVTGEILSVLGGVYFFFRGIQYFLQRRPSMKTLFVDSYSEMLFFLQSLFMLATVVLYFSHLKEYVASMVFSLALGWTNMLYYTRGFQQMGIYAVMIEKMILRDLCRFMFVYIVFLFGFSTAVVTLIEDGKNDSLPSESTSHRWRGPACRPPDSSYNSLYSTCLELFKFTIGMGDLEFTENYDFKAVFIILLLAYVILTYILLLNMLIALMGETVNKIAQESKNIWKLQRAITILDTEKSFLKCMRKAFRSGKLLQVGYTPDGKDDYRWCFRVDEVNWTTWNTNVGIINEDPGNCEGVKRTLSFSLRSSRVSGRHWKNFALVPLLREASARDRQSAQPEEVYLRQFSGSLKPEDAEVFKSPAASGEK
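Fluo-8 calcium influx in TRPV1-expressing cells, kinetic read (ex 480/em 520 nm). Compound added and read 3 min for agonist activity, followed by capsaicin at EC20 final and 2 min further read for enhancement.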
ClpP mod – qHTS Assay for Activators of ClpP | ATP-dependent Clp protease proteolytic subunit (Bacillus subtilis (strain 168)), P80244 | purified B. subtilis ClpP, FRET peptide cleavage, 20 min | Potency, µM (titrated, usually from 57.5 µM), without a hit: at the highest dose activity change, negative = active | 340,000 compounds, 1.9% hits | AID 651965, 2013; active = well fitted falling curve with a large enough effect; inconclusive = small, poorly fitted or top-dose-only effect; inactive = no such curve, though single readings can be large or run the other way; further: potency means the concentration at half of the fitted maximal effect; the source files actives as falling curves though it sought activators and does not explain the sign; nearly all actives have a fitted effect of over 65% in size; many hits overshoot -100%
Target sequence (P80244 whole entry, looked up): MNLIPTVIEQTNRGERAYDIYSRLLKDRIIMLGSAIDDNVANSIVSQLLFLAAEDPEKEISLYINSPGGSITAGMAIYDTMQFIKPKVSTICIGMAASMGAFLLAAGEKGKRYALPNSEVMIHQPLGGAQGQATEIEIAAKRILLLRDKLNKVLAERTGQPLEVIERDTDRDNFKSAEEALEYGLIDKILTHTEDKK
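ClpP 10 microg/mL final, pH 8 Tris/KCl buffer with BSA, glycerol, Tween-20; compound pinned in; FRET-FV substrate; RT 20 min; Ex320/Em430; ΔFRET vs ADEP 5.8 microM, DMSO, no enzyme.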
D2 PAM – positive allosteric modulators of human D2 dopamine receptor; P14416; DiscoveRx D2 beta-arrestin cells, luminescence, 90 min; 100% = 57 uM dopamine signal; potentiation, % (test concentration not listed); 360,000 compounds, 0.23% hits; AID 624464; active = potentiation of 50% or more; inconclusive = 30% to 50%; inactive = 30% or less;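 further: compound concentration not given in the record; tested on top of an EC20 dose of dopamine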
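PathHunter D2 cells, attached overnight at 37 deg C, received compound in DMSO plus dopamine at EC20 (50 nM final) for 90 min at 37 deg C. Beta-arrestin recruitment was read as luminescence after 1 h with detection reagent at ambient temperature.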
gsp antag – gsp mutant antagonism; gsp-mutant cells, cAMP HTRF, 30 min; control for the full effect not named in the record; Potency, µM (doses to about 76.9 µM), without a hit: top-dose activity change, negative = inhibition, most hits filed as inhibitors; 340,000 compounds, 0.4% hits; active = falling curve of any shape with a large fitted effect; inconclusive = falling curve, mostly with a smaller effect; inactive = flat or rising curve; cell line not stated here;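 further: intracellular cAMP measured with PDE inhibitor Ro 20-1724 present during compound exposure; potency means the concentration at half of the fitted maximal effect; on the % scale 0 is the no-effect control and ±100 the full control effect; nearly all actives have a fitted effect of over 65% in size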
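Cells, 2000/well, grown 16–24 h in DMEM 10% FBS with 0.5 mg/ml G418, then compounds plus […] (300 uM addition stock), 30 min at 37C. cAMP read by HTRF (cAMP-d2 and anti-cAMP antibody-K in lysis buffer) after 30 min RT.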
Menin MLL FP FL – inhibitors of human menin-MLL interaction, wild-type MLL peptide. AID 1766. Fluorescence polarization, fluorescein-MLL peptide displacement from menin. 290,000 tested, under 10 active. FP activity change, % at 61.4 µM; inconclusive = falling polarisation curve, or a change in total fluorescence; inactive = total fluorescence flat and polarisation flat or rising; no compound was filed as active; the % refers to the polarisation; negative = inhibition;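 further: % of control where 0% means no effect; inhibitors lower the polarisation; unlabelled MLL peptide was the positive control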
Numbers without * were called inactive; ? = inconclusive; . = not tested or not shown; & = joins results of further samples; [ ] = dose if it differs, or a comment.

Below each compound – Sfp inh	gsp agonist	TRPV1 potentiator	ClpP mod	D2 PAM	gsp antag	Menin MLL FP FL
C[C@H](NC(=O)OC(C)(C)C)C(=O)N/N=C/c1ccc2nccnc2c1
  11%	39%	-2	-3.6%	-19	7%	-1.0
CCCC1CCC(c2ccc(/C(N)=N/O)cc2)CC1 (stereo unspecified)
  21%	8%[15.4 µM]	1	.	6	11%	-3.8
CCOC(=O)C1=C(C)NC(=O)NC1c1c(O)ccc2ccccc12 (stereo unspecified)
  -4%	1%	4	-3.5%	-14	12%	1.9
Cc1ccc(C(=O)N/N=C/c2c(O)ccc3ccccc23)cn1
  9%	-57%[inhibitor]	-16	2.8%	17	-9%	?
O=C(COC(=O)Cc1ccccc1[N+](=O)[O-])NNC(=O)c1ccc([N+](=O)[O-])cc1
  .	-3%	14	0.5%	0	2%	.
CCC(C)NS(=O)(=O)c1ccc(-c2csnn2)s1 (stereo unspecified)
  15%	-17%	1	-0.9%	0	21%	2.2
CCOc1ccc(-c2cn(-c3cccc(SC)c3)c(=O)[nH]2)cc1
  -9%	-2%	-5	5.0%	-7	16%	19
CCOC(=O)N1CCC(NC(=O)CN2C(=O)COc3ccc(C(C)(C)C)cc32)CC1
  10%	-29%	9	-0.1%	-4	-1%	0.0
O=C(Cc1ccc(S(=O)(=O)N2CCOCC2)s1)N1CCN(S(=O)(=O)c2ccccc2F)CC1
  .	22%	.	-3.6%	-4	-10%	.
COc1ccc(N(C(=O)C(C)C)S(=O)(=O)c2cccc([N+](=O)[O-])c2)cc1
  4%	17%[15.4 µM]	-14	.	11	-13%	-0.6
Cc1ccc(CSCCNS(=O)(=O)c2ccc(C)cc2)cc1
  8%	-1%	11	0.4%	-15	-2%	-2.0
Cc1ccc(C(=O)NCCCNC(=O)c2ccccc2F)cn1
  7%	-12%[15.4 µM]	5	.	1	3%	-1.8
COc1ccc(S(=O)(=O)NC2(C(F)(F)F)N=C3SCCN3C2=O)cc1 (stereo unspecified)
  13%	?	-5	-2.0%	-9	7%	-0.5
CCCS(=O)(=O)N1CCC(C(=O)NCCN2CCC(Cc3ccccc3)CC2)CC1
  11%	2%	-2	0.8%	-5	8%	-0.5
OCCN1CCN(Cc2cc(Br)cc(Br)c2O)CC1
  19%	3%	-9	-0.7%	-20	7%	-1.1
Cc1cnc(NC(=O)CN2CCN(c3ccccc3F)CC2)s1
  -4%	27%	-28	-3.7%	-12	5%	-2.3
COc1ccc(CN2CCN(CC=C(C)C)C(CCO)C2)cc1Cn1cccn1 (stereo unspecified)
  -1%	9%[15.4 µM]	17	.	-9	14%	0.8
Cc1[nH]c(=O)[nH]c(=O)c1/C=N/NC(=O)[C@H](C)N
  50µM*	-1%	15	-12%	-9	9%	-0.6
CCN(CC(=O)NCc1cccs1)C(=O)c1cccc(S(=O)(=O)N(C)C)c1
  .	-2%[15.4 µM]	.	0.2%	1	4%	.
COc1ccc(OC)c(C(=O)CSc2nnc(-c3cccs3)n2C)c1
  -5%	3%	14	-1.3%	-12	6%	-0.9

Next entries
Below each compound – Sfp inh	gsp agonist	TRPV1 potentiator	ClpP mod	D2 PAM	gsp antag	Menin MLL FP FL
CN(C)c1nc(N(C)C)nc(N2CC(=O)N(c3ccccc3)C2=N)n1
  13%	35%	-7	1.5%	1	-1%	1.4
CCn1ncc(S(=O)(=O)NCc2ccccc2Cl)c1C
  9%	-7%	7	1.1%	-12	1%	3.3
CCOCCCNc1nc2c(C)cccn2c(=O)c1/C=C1\SC(=S)N(C(C)CC)C1=O (stereo unspecified)
  3%	12%[15.4 µM]	22	.	-2	11%	?
COc1ccc(NC(=O)Nc2c[nH]c(=O)[nH]c2=O)cc1OC
  12%	-52%[inhibitor]	2	.	2	2%	-5.0
CCCc1c(NC(=O)Nc2ccc(F)cc2)cnn1-c1ccc(Cl)cc1
  23%	-1%[15.4 µM]	-15	-1.6%	-13	?	1.0
Cc1ccc2[nH]c(=O)c3cc(C(=O)NC(C)C)sc3c2c1
  -1%	-3%[15.4 µM]	14	.	-3	-1%	2.0
O=C(Nc1cc(C(F)(F)F)ccc1N1CCOCC1)c1ccc(Cl)nc1
  1%	-31%[inhibitor]	5	-0.9%	-7	3%	2.1
Cc1ccc(CCC(=O)Nc2ccc(CC(=O)O)cc2)o1
  ?	-1%[15.4 µM]	-1	0.4%	-2	9%	-3.5
O=C(COc1ccccc1)Nc1ccc(Cl)cc1Cl
  2%	.	0	.	.	.	-0.3
OCC#CCSc1nnc(-c2ccccc2Br)o1
  -4%	-27%	-23	-1.5%	-14	9%	-2.1
CS(=O)(=O)c1ccc(Cl)c(NC(=O)COC(=O)/C=C/c2cnc3ccccc3n2)c1
  -5%	10%	4	1.6%	-3	-3%	-1.3
CC1CCC2(CC1)NC(=O)N(CC(=O)c1ccc(Cl)s1)C2=O (stereo unspecified)
  14%	2%	2	-1.0%	-18	-7%	.
CC(=O)Nc1nc2c(c3c1c(=O)oc1ccccc13)CCCC2
  14%	.	2	.	.	.	1.5
CCCCCCc1ccc(OC(=O)c2ccncc2)cc1
  0%	-16%	-1	0.6%	-7	2%	4.6
COc1ccc(S(=O)(=O)CCC(=O)Nc2c(C)cccc2C)cc1
  -19%	-8%	-6	0.9%	0	13%	1.6
O=C(Nc1cccc(Cl)c1)Nc1ccc2c(c1)OCO2
  -6%	-45%[inhibitor]	-5	-0.3%	3	-29%	2.5
CCC1(CC)NC(=O)N(CC(=O)Nc2cccc3ccccc23)C1=O
  .	-28%	.	2.0%	-7	17%	.
CC(C)n1ncc2c(C(=O)N3CCN(Cc4ccc(Cl)s4)CC3)cc(C3CC3)nc21
  .	-1%	-11	-2.0%	-7	-15%	.
CN1CCN(S(=O)(=O)c2ccc3c(c2)OCCO3)CC1
  20%	16%	22	0.6%	-8	8%	5.3
N#C/C(=C\c1cccnc1)C(=O)Nc1ccc(SC(F)F)cc1
  ?	12%[15.4 µM]	4	-1.4%	-10	-4%	-2.3

(list continues)
Below each compound – Sfp inh	gsp agonist	TRPV1 potentiator	ClpP mod	D2 PAM	gsp antag	Menin MLL FP FL
O=C(COc1ccccc1Cl)N1CCCC1
  6%	-31%[inhibitor]	4	-3.2%	2	1%	6.9
Cc1nn(C)cc1CN(C)C(=O)CC12CC3CC(CC(C3)C1)C2
  14%	-4%	-7	-20%	-10	0%	7.4
CCn1c(CNc2ccc(OC)cc2)nnc1SCC(=O)c1ccc(OC)cc1
  28µM*	2%	5	-0.9%	4	?	0.1
CC1(C)CC(=O)C2=C(C1)N(CC1CCCO1)C(=O)C2(NC(=O)c1cccnc1)C(F)(F)F (stereo unspecified)
  11%	-6%	8	-1.4%	2	8%	4.0
CCOC(=O)Cn1c2ccc(C)cc2c2nc(C)sc21
  5%	0%[15.4 µM]	0	-0.4%	-2	-11%	-3.1
Cc1ccccc1-n1c(-c2cccnc2)n[nH]c1=S
  7%	18%	4	1.3%	-8	-9%	1.9
O=C(COc1ccccc1)Nc1ccc(S(=O)(=O)Nc2ncccn2)cc1
  -17%	30%	26	.	2	-3%	1.7
CCCC(=O)Nc1ccc(-c2csc(N/N=C\c3ccncc3)n2)cc1
  25µM*	-37%[inhibitor]	?	.	10	?	-0.4
CC(=O)Nc1ccc(C(=O)OCC(=O)Nc2ccc(S(=O)(=O)N3CCOCC3)cc2)cc1
  .	-48%[inhibitor]	.	0.7%	-7	6%	.
CC(=O)Nc1ccc(NC(=O)COC(=O)c2c3c(nc4ccccc24)CCN(Cc2ccccc2)C3)cc1
  4%	-4%	1	-8.0%	-16	8%	9.0
O=C1C2CC=C(Cl)CC2C(=O)N1CNc1ccccn1 (stereo unspecified)
  21%	8%	-11	-2.7%	11	5%	2.3
O=C(COC(=O)C1=COCCO1)Nc1ccc([N+](=O)[O-])cc1C(F)(F)F
  .	-15%	-2	0.6%	3	6%	.
NC(=S)NNC(=O)c1ccccc1
  -3%	0%	-7	97%	-8	8%	2.5
CCOc1ncccc1C(=O)N(C)CC1COc2ccccc2O1 (stereo unspecified)
  0%	14%	-7	0.9%	-12	20%	4.9
COc1ccc(CCC(=O)NCc2cn3ccccc3n2)cc1
  -2%	19%	-12	3.9%	-4	10%	3.5
COc1ccc(C(=O)Nc2ccc(N3CCCC3)cc2)cc1
  79µM*	-6%	-17	1.6%	-8	3%	6.0
CCOc1ccc(OCc2ccc(C(=O)O)o2)cc1
  9%	20%	-2	-13%	-7	7%	0.7
CC1CCCCC12NC(=O)N(CC(=O)Nc1ccccc1N1CCOCC1)C2=O (stereo unspecified)
  19%	7%[15.4 µM]	-2	.	7	7%	-0.4
O=S1(=O)CCO[C@H]2Cc3ccccc3[C@H]2N1Cc1ccccc1F
  8%	.	7	-0.3%&0.5%	0	-6%	1.7
O=C(O)CCCCCN1C(=O)/C(=C\c2ccncc2)SC1=S
  -8%	9%	1	-0.4%	?	-23%	3.5

Carrying on:
Below each compound – Sfp inh	gsp agonist	TRPV1 potentiator	ClpP mod	D2 PAM	gsp antag	Menin MLL FP FL
Cc1ccccc1Cn1nnc(C(=O)Nc2ccc3c(c2)OCCO3)c1N
  .	-23%	9	0.3%	19	-5%	.
S=c1[nH]nc(-c2cccnc2)n1/N=C/C=C/c1ccccc1
  -25%	-26%	-6	-2.5%	-18	?	-0.8
COc1ccc(N=Cc2sc3ccccc3c2Cl)cc1
  -11%	-33%[inhibitor]	4	-0.9%	-6	2%	0.2
CSc1nnc(Cc2cc(=O)[nH]c(=O)[nH]2)n1-c1cccc(C)c1
  9%	9%	-4	-0.4%	-5	-11%	-0.5
COc1ccc(OC)c(NC(=O)COC(=O)/C=C/c2ccccc2Cl)c1
  ?	-4%[15.4 µM]	7	1.2%	-5	-2%	-0.3
COc1cccc(Nc2c3c(nc4c(-c5ccccc5)c(C)nn24)CCC3)c1
  15%	-33%[inhibitor]	-6	?	-14	-18%	.

Compound activity from PubChem BioAssay.
